ClpP mod: qHTS Assay for Activators of ClpP; Potency, µM (highest dose often 57.5 µM), inactives show at the highest dose activity change, negative = active; 340,000 compounds, 1.9% hits; purified B. subtilis ClpP, FRET peptide cleavage, 20 min; active = well fitted falling curve with a large enough effect; inconclusive = small, poorly fitted or top-dose-only effect; inactive = no such curve, though single readings can be large or run the other way; further: potency means the concentration at half of the fitted maximal effect; the source files actives as falling curves though it sought activators and does not explain the sign; nearly all actives have a fitted effect of over 65% in size; many hits overshoot -100%
Target sequence (P80244 whole entry, looked up): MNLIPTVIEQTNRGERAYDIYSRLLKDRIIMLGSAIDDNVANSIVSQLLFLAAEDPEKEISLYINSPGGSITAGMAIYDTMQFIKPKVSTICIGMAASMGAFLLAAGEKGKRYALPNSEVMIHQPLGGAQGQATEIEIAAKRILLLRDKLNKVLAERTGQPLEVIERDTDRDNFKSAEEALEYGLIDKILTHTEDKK
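FRET quenching reversal measured ClpP activation: 10 microg/mL B. subtilis ClpP at pH 8 with the FRET-FV decapeptide, read at 430 nm after 320 nm excitation. The 20-min minus 0-min signal was scaled between DMSO/no-enzyme wells and ADEP (5.8 microM final).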
D2 agonist: Beta-Arrestin HTS for Positive Allosteric Modulators of the Human D2 Dopamine Receptor: Agonists. activation, % (no concentration beside the values). 360,000 compounds, 0.084% hits. DiscoveRx PathHunter D2 beta-arrestin, luminescence, 90 min; 100% = 57 uM dopamine signal. D(2) dopamine receptor (Homo sapiens), P14416; in the data active = activation above about 40%; inconclusive = about 15% to 40%; inactive = below about 15%; further: compound concentration not given in the record; the text of the record calls up to 30% inactive
Target sequence (P14416 whole entry, looked up): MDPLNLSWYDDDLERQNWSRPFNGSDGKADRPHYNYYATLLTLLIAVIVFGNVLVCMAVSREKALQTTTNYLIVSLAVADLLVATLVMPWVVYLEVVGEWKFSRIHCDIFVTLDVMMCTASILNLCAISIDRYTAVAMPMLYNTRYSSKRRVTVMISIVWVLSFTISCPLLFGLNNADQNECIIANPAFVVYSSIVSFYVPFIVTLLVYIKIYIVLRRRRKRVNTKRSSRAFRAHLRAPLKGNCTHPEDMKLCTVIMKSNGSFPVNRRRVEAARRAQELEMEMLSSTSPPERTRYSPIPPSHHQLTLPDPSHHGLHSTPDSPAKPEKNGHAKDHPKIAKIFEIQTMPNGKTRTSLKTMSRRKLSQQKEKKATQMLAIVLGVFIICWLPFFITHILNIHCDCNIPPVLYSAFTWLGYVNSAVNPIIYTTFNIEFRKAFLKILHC
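DiscoveRx PathHunter D2 beta-arrestin cells (2,100/well) attached overnight, then compound-stimulated 90 min at 37 C in HBSS/10 mM HEPES/0.1% Tween-20 buffer; beta-galactosidase complementation read by luminescence after 1 h at ambient temperature. Dopamine 57 uM final (EC100) as control.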
gsp agonist: qHTS for Agonist of gsp, the Etiologic Mutation Responsible for Fibrous Dysplasia/McCune-Albright Syndrome: qHTS; gsp mutant cells, cAMP HTRF, 30 min; control for the full effect not named in the record; Potency, µM (series often up to 76.9 µM), inactives show at the highest dose activation (cAMP increase), hits mostly activators; 340,000 compounds, 0.13% hits; active = well fitted activation curve with a large enough effect; inconclusive = small, poorly fitted or top-dose-only effect, or another doubt; inactive = no such curve, though single readings can be large or run the other way; cell line not stated here;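 further: phosphodiesterase inhibitor Ro 20-1724 added with compounds to block cAMP breakdown; potency means the concentration at half of the fitted maximal effect; nearly all actives have a fitted effect of over 60% in size; about a fifth of the inactives were tested at one dose only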
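Cells stably selected in G418 were plated at 2000/well, grown 16-24 hr, then given compounds in DMSO with the PDE inhibitor […] (300 uM solution added) for 30 min at 37C; cAMP was read by HTRF.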
gsp antagonist: qHTS for Antagonists of gsp, the Etiologic Mutation Responsible for Fibrous Dysplasia/McCune-Albright Syndrome: qHTS; 340,000 compounds, 0.4% hits; gsp-mutant cells, cAMP HTRF, 30 min; control for the full effect not named in the record; AID 624288, 2012; Potency, µM (top dose mostly 76.9 µM), for the others: top-dose activity change, negative = inhibition, hits mostly inhibitors; active = falling curve of any shape with a large fitted effect; inconclusive = falling curve, mostly with a smaller effect; inactive = flat or rising curve; cell line not stated here;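 further: intracellular cAMP measured with PDE inhibitor Ro 20-1724 present during compound exposure; potency means the concentration at half of the fitted maximal effect; on the % scale 0 is the no-effect control and ±100 the full control effect; nearly all actives have a fitted effect of over 65% in size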
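Cells, 2000/well, grown 16–24 h in DMEM 10% FBS with 0.5 mg/ml G418, then compounds plus […] (300 uM addition stock), 30 min at 37C. cAMP read by HTRF (cAMP-d2 and anti-cAMP antibody-K in lysis buffer) after 30 min RT.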
PINK1 modulator: A Quantitative High throughput Screen to Identify Chemical Modulators of PINK1 Expression; PINK1 immunofluorescence, high-content cytometry, 24 h; Potency, µM (top dose mostly 76.6 µM), for inactives: at the highest dose activation (PINK1 increase), hits mostly activators; 410,000 compounds, 0.2% hits; AID 624263, 2012; active = well fitted activation curve with a large enough effect; inconclusive = small, poorly fitted or top-dose-only effect; inactive = flat fitted curve, though single readings scatter; cell line not stated here;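 further: potency means the concentration at half of the fitted maximal effect; % of control where 0% means no effect; nearly all actives have a fitted effect of over 65% in size; a mitochondrial uncoupler was the plate control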
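Stable cell line, 250 cells/well, 12 h attachment; compounds pinned at 5 concentrations, 24 h; CCCP control. Fixed with nuclear dye, primary antibodies 12 h at 10 degrees C, secondary plus cell stain; laser-scanning cytometer read.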
Sfp PPTase inh: qHTS Assay for Inhibitors of Bacillus subtilis Sfp phosphopantetheinyl transferase (PPTase); 4'-phosphopantetheinyl transferase ffp (Bacillus subtilis), Q9F4F7; Biochemical Sfp PPTase activity, qHTS; Potency, µM, inactives show max response, negative = inhibition, hits mostly inhibitors; 310,000 compounds, 3.5% hits; active means well fitted inhibition curve with a large enough effect; inconclusive means small, poorly fitted or top-dose-only effect, or another doubt; inactive means no such curve, though single readings can be large or run the other way;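 further: the enzyme is Sfp with the accession as filed and its product quenches rhodamine fluorescence; potency means the concentration at half of the fitted maximal effect; 0% = enzyme reaction without inhibitor and -100% = no enzyme wells; top concentration of the series not given in the record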
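Compounds were incubated with enzyme (final 15 nM) for 15 min at room temperature before substrate addition started the reaction. Fluorescence at 525 nm excitation, 598 nm emission was recorded immediately and after 30 minutes.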
Menin-MLL FL inh: qHTS Assay for Inhibitors Targeting the Menin-MLL Interaction in MLL Related Leukemias: Competition With Fluorescein Labeled MLL-derived Peptide. Fluorescence polarization, fluorescein-MLL peptide displacement from menin. FP activity change, % at 61.4 µM. 290,000 tested, under 10 active. AID 1766, 2009; inconclusive = falling polarisation curve, or a change in total fluorescence; inactive = total fluorescence flat and polarisation flat or rising; no compound was filed as active; the % refers to the polarisation; negative = inhibition;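 further: % of control where 0% means no effect; inhibitors lower the polarisation; unlabelled MLL peptide was the positive control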
* = called active by the depositor; ? = inconclusive; nt = not tested or not shown; & = joins results of further samples; [ ] = another dose, or the depositor's remark. The order is random. Share with any hit: about 5.1%.

Values in the order – ClpP mod	D2 agonist	gsp agonist	gsp antagonist	PINK1 modulator	Sfp PPTase inh	Menin-MLL FL inh
1. COc1cc2c(cc1OC)CN(CC(=O)Nc1ccc(C)c(S(=O)(=O)N3CCOCC3)c1)CC2
→ -1.0%	-1.3	-4%	-1%	0.8%	2%	nt
2. Nc1nc(SCc2nnc(SCC(=O)O)n2-c2ccccc2)nc2sc3c(c12)CCCC3
→ -19%	0.7	18%	5%	-4.0%	12%	0.5
3. COc1ccc(N2CCN(CC(=O)Nc3ccc(C)cc3Br)CC2)cc1
→ 1.3%	4.4	-16%	9%	0.9%	nt	nt
4. CCOc1ccc(-c2noc(=O)[nH]2)cc1
→ 1.3%	-3.0	11%	-21%	-1.6%	25%	1.2
5. COc1ccc(NC(=O)c2c(-c3c(Cl)cccc3Cl)noc2C)c(OC)c1
→ nt	0.0	1%[15.4 µM]	-19%	1.8%	-11%	3.1
6. CC(NC(=O)OCc1ccccc1)C(=O)NCC1CCCO1 (stereo unspecified)
→ -0.4%	-0.7	?	9%	1.4%	9%	4.8
7. COc1cc(OC)c(N2CC(C(=O)NCCC3=CCCCC3)CC2=O)cc1Cl (stereo unspecified)
→ 0.5%	-2.3	-13%	-1%	-0.8%	nt	nt
8. O=S(=O)(NNC(=S)Nc1ccc(S(=O)(=O)Nc2ncccn2)cc1)c1ccc(Br)cc1
→ 1.3%	-6.9	23%	-3%	1.0%	10%	nt
9. COc1cc(/C=C2/C(=O)N(c3ccc([N+](=O)[O-])cc3)N=C2N2CCOCC2)ccc1O
→ 1.9%	-8.3	1%	?	?	10%	1.2
10. C/C(=N\NC(=O)c1ccc(NS(=O)(=O)c2cccs2)cc1)c1ccc2c(c1)OCO2
→ nt	-2.3	-20%[15.4 µM]	-92%	0.9%	16%	-0.2
11. O=C(NCC1(N2CCCCC2)CCCCC1)c1cccc(S(=O)(=O)Nc2ccc(F)cc2)c1
→ -1.1%	-5.6	-1%	9%	3.6%	nt	nt
12. CC(=O)c1ccc(C(=O)Nc2nnc(-c3ccc(Cl)cc3)o2)cc1
→ -1.1%	-4.9	-2%	-8%	0.6%	15%	-0.7
13. COC(=O)C(C(=O)OC)C(CC(=O)c1ccc(C)cc1)c1cc(OC)c(OC)c(OC)c1 (stereo unspecified)
→ 1.9%	-4.2	3%	7%	5.7%	7%	-5.8
14. N/C(=N\OC(=O)COc1cc(Cl)c(Cl)cc1Cl)c1ccccn1
→ nt	4.5	0%	-9%	-1.7%	9%	-1.1
15. O=C1CC(c2ccsc2)Sc2ccccc2N1 (stereo unspecified)
→ -0.5%	-5.9	3%[15.4 µM]	9%	0.6%	-3%	-1.4
16. Brc1ccccc1-c1nnc2sc(Cc3ccccc3)nn12
→ 0.5%	-3.2	-35%	6%	-2.0%[38.3 µM]	-16%	-2.7
17. C/C(CC(=O)Nc1c(C)cc(C)cc1C)=N\NC(=O)Cc1ccccc1
→ nt	1.4	7%	6%	1.1%	6%	nt
18. N#CC(C#N)=C1NC2(CCCCC2)Cc2ccccc21
→ 0.9%	-4.6	-37%	-8%	1.1%	27%	3.7
19. COc1cc(-c2nc3cc(C)ccn3c2NC2CCCCC2)ccc1-c1ccc(C(C)=O)cc1
→ -8.1%	-1.6	?	-8%	0.8%	nt	nt
20. O=C(COc1ccccc1)Nc1cccc2c1CCCC2
→ 0.3%	-5.0	5%	7%	0.1%	-5%	0.5
21. O=C(O)CSCNC(=O)C12CC3CC(CC(C3)C1)C2
→ -1.9%	-0.2	31%	-2%	-0.4%	17%	3.5
22. CC(C)NC(=S)N/N=C/c1ccc(C(C)(C)C)cc1
→ 3.3%	-0.2	25%[15.4 µM]	-2%	?	24%	0.1
23. COc1ccc(Cl)cc1NC(=O)COC(=O)c1ccc(C)o1
→ 0.3%	-1.8	20%	-8%	-0.6%	nt	nt
24. COc1cccc(C(=O)C[n+]2cccc3cc(OC)ccc32)c1
→ -3.4%	3.7	1%	-2%	0.2%	nt	nt
25. COc1ccc(NC(=O)NC(C)c2ccc3c(c2)OCO3)c(OC)c1 (stereo unspecified)
→ -0.8%	2.0	-3%[15.4 µM]	9%	1.2%	6%	-2.5
26. COc1ccccc1OCC(=O)NNC(=O)Nc1ccccc1
→ nt	-3.4	14%[15.4 µM]	6%	0.2%	nt	nt
27. CC(=O)N1CCc2cc(Br)cc(S(=O)(=O)N3CCN(c4ccccn4)CC3)c21
→ -1.2%	-1.4	-19%	14%	4.5%	12%	2.4
28. CC(=O)N1CC(C)Sc2ccc(S(=O)(=O)NC(C)c3ccccc3)cc21 (stereo unspecified)
→ -0.1%	-3.5	-3%	4%	1.6%	16%	nt
29. CC(=O)Nc1ccc(NC(=O)CSc2ccc([N+](=O)[O-])cn2)cc1
→ nt	-3.9	9%[15.4 µM]	-6%	-1.5%	-4%	1.9
30. CCCCOC(=O)c1ccc(NC(=S)NC(=O)c2ccco2)cc1
→ -0.5%	-4.2	-39%[inhibitor]	-23%	13%	-16%	nt
31. O=C(CN1CCN(C(=O)c2cccc(S(=O)(=O)N3CCCC3)c2)CC1)Nc1ccc(F)cc1
→ -12%	-1.7	-7%	-4%	3.2%	nt	nt
32. Cc1cc(OC(C)C(=O)NCCCn2ccnc2)c2c(C)cc(=O)oc2c1 (stereo unspecified)
→ 3.9%	-1.4	?	15%	0.7%	16%	-8.9
33. COc1cccc(OC)c1C(=O)Nc1sc2c(c1C(N)=O)CCCC2
→ nt	-4.8	12%[15.4 µM]	-23%	2.3%	nt	nt
34. CC1=C(C(=O)OCc2ccccc2)C(/C=C/c2ccccc2)NC(=S)N1 (stereo unspecified)
→ 4.5%	-1.9	?	-29%	3.7%	6%	5.0
35. CCOC(=O)C1CCN(C(=O)c2cc3cc(Br)ccc3oc2=O)CC1
→ -0.1%	-1.8	22%	4%	0.0%	13%	0.3
36. O=C(c1ccc(Cl)cc1)c1cccc(O)c1
→ -1.9%	-0.9	-11%	-7%	-2.2%	nt	nt
37. CC(C)(C)NC(=O)CN(Cc1cccs1)C(=O)CN1C(=O)C(=O)c2ccccc21
→ -1.4%	-8.9	-2%	-3%	1.5%	2%	1.0
38. COc1ccc(N(CC(=O)Nc2ccccc2C(=O)N2CCCC2)S(=O)(=O)c2ccccc2)cc1
→ 1.4%	-4.1	-3%[15.4 µM]	-13%	3.5%	2%	nt
39. CN(C(=O)COC(=O)c1cc(=O)[nH]c2ccccc12)c1c(N)n(Cc2ccccc2)c(=O)[nH]c1=O
→ nt	-3.3	16%[15.4 µM]	7%	-0.5%	nt	nt
40. COc1ccc(C)cc1Nc1cc(C)nc2nc(C)nn12
→ -0.8%	-2.9	17%	4%	3.3%	11%	0.2
41. COc1ccc(CN(C(=S)Nc2ccccc2)C2CC(=O)N(c3ccc(Cl)cc3)C2=O)cc1 (stereo unspecified)
→ -2.2%	-2.6	3%	-14%	?	1%	0.9
42. N#Cc1cc2c(nc1SCC1COc3ccccc3O1)CCC2 (stereo unspecified)
→ -27%	-0.3	10%	9%	-0.1%	-2%	3.0
43. O=C1CN(c2ccc(Cl)cc2)C(=O)CN1NC(=S)Nc1ccc(Cl)cc1
→ -0.9%	-5.0	?	5%	1.1%	3%	0.7
44. COc1cc(CN2CCN(C(=O)c3ccccc3F)CC2)cc(OC)c1OC
→ -1.1%	-0.4	-26%	-3%	0.6%	-22%	0.5
45. CC(C)(C)c1ccc(NC(=O)c2cc(C3CCCN(C(=O)CCc4ccccc4)C3)on2)cc1 (stereo unspecified)
→ -4.1%	5.4	nt	nt	1.3%	nt	nt
46. CC(C)(C)OC1NS(=O)(=O)OCC1NCOC(Cl)(Cl)Cl (stereo unspecified)
→ 0.0%	-5.2	nt	10%	3.0%	13µM*	4.1
47. CC(=O)c1nc2ccccc2n1S(=O)(=O)c1ccc(C)cc1
→ 5.6%	1.4	-26%	7%	-3.1%[38.3 µM]	3%	1.8
48. CCOc1cc(C(=O)NCc2ccc(C)cc2)ccc1OCC(=O)N1CCOCC1
→ nt	-7.7	-13%	6%	1.2%	11%	-3.4
49. COc1ccc(C)cc1C(=O)CCC(=O)Nc1ccccc1N1CCOCC1
→ -2.4%	-0.5	-50%[inhibitor]	-3%	-0.2%	-93%	2.9
50. COc1cc(NC(=O)[C@@H]2CCCN(S(=O)(=O)c3cccc4cccnc34)C2)cc(OC)c1OC
→ 0.7%	12	nt	-14%	2.6%	nt	nt

Carrying on.
Values in the order – ClpP mod	D2 agonist	gsp agonist	gsp antagonist	PINK1 modulator	Sfp PPTase inh	Menin-MLL FL inh
51. O=C(C1CCN(c2ncnc3c2nc2n3CCCCC2)CC1)N1CCN(c2ccc(F)cc2)CC1
→ -1.5%&-0.8%	0.5	23%	-4%	-1.6%&-4.1%	2%	0.1
52. COc1ccc(CCCN2CCC(CN3CCNC(=O)C3=O)CC2)cc1OC
→ -1.9%	-2.6	nt	9%	1.4%	nt	nt
53. CCN(CC)c1ncnc2c1ncn2[C@H]1CN(Cc2ccncc2)C[C@@H](CO)O1
→ 0.2%	-3.1	nt	nt	0.3%	nt	nt
54. Cn1nnc(NC(=O)CSc2ccc(Cl)cc2)n1
→ 0.0%	-0.8	-1%	2%	0.8%	12%	-1.2
55. Cc1nn2c(nc(N3CCOCC3)c3ccccc32)c1C=C(C#N)C#N
→ -1.5%	1.7	?	-8%	2.3%	-13%	-0.6
56. Cc1cccc(CCN(CC(=O)NC2CCCCC2)C(=O)c2csnn2)c1
→ nt	-4.0	24%[15.4 µM]	-4%	-0.3%	9%	-1.2
57. CCn1c2ccccc2c2cc(NC(=O)c3ccccc3[N+](=O)[O-])ccc21
→ 0.3%	-5.5	13%	0%	?	14%	-0.4

High-throughput results as filed in PubChem BioAssay.
